AF4-AF9 inh: inhibitors of human MLL-AF4/AF9 interaction; P42568; AlphaScreen, biotin-AF4 peptide binding to FLAG-AF9; AID 651704; inhibition, % at 10 µM; hit rate 0.47% among 350,000;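 active = every replicate reaching a set inhibition limit, whatever the replicate mean, cut at about 25% in these data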;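 also: 0% = plate neutral control median and 100% = total signal loss; the record names both 10 and 1 µM as test concentration; the first replicate is given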
Target sequence (P42568 whole entry, looked up): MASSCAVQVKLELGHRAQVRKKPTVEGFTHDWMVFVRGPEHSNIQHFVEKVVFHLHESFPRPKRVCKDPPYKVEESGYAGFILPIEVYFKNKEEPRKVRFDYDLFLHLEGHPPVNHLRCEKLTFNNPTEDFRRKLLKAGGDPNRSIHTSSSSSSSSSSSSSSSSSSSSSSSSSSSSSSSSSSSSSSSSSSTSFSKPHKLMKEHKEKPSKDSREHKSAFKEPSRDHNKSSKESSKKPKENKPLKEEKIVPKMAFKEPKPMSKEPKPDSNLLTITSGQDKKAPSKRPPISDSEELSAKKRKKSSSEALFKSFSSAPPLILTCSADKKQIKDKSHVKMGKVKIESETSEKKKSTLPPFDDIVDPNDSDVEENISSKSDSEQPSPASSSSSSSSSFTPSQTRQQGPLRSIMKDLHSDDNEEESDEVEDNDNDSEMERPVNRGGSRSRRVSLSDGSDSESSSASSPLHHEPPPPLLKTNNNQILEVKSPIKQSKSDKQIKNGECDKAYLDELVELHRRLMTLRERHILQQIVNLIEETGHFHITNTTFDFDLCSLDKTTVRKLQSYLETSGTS
Starred values were filed as active, the others as inactive; & = joins results of further samples.

SMILES | AF4-AF9 inh
C[C@@H](O)C#Cc1ccc([C@@H]2[C@@H](CO)N3CCCCN(CC4CCOCC4)C[C@@H]23)cc1 | 1.9
C[C@@H]1CN([C@H](C)CO)C(=O)Cc2cc(NC(=O)NC3CCCCC3)ccc2O[C@H]1CN(C)C(=O)Nc1ccc(F)cc1 | -0.9
C[C@H]1CN([C@@H](C)CO)C(=O)c2cc(C#Cc3cccnc3)cnc2O[C@H]1CN(C)C(=O)CN(C)C | -4.2
C[C@H](CO)N1C[C@H](C)[C@H](CN(C)S(C)(=O)=O)Oc2c(NS(=O)(=O)c3cn(C)cn3)cccc2C1=O | -0.6
CO[C@@H]1CN(C)C(=O)c2cc(NC(=O)C3CCC3)ccc2OC[C@H](C)N(Cc2nccs2)C[C@@H]1C | 2.6
C[C@@H]1CN([C@@H](C)CO)C(=O)c2cc(C#CC3CCCC3)cnc2O[C@H]1CN(C)C(=O)Nc1ccccc1 | -0.6
COc1ccc(F)cc1-c1cc(C(=O)Nc2ccc(NC(C)=O)cc2)[nH]n1 | -3.4
CCC(=O)N(C)C[C@H]1Oc2cc(-c3ccc(C)cc3)ccc2S(=O)(=O)N([C@H](C)CO)C[C@@H]1C | 1.9
C/C=C/c1ccc2c(c1)O[C@@H](CN(C)C(=O)CN(C)C)[C@H](C)CN([C@H](C)CO)S2(=O)=O | -2.2
CCC(=O)N1C[C@H](C)[C@H](OC)CN(C)C(=O)c2ccc(NC(=O)c3cnccn3)cc2OC[C@@H]1C | -2.2
C[C@@H]1CN([C@@H](C)CO)C(=O)c2cc(NS(=O)(=O)c3cccs3)ccc2O[C@@H]1CN(C)Cc1ccncc1 | -1.7
O=C(NC1CCC1)[C@H]1[C@H](CO)[C@H]2Cn3c(cccc3=O)[C@H]2N1CC1CCOCC1 | -3.2
C[C@H]1CCCCO[C@@H](CN(C)C)[C@@H](C)CN([C@@H](C)CO)C(=O)c2cc(NC(=O)Nc3ccc(F)cc3)ccc2O1 | 2.8
O=C(NCc1cc(Cl)cc(Cl)c1)c1ccc2nc([C@@H]3O[C@H](CO)[C@H](O)[C@H](O)[C@H]3O)[nH]c2c1 | 1.3
COc1cccc(NC(=O)N[C@@H]2C=C[C@H](CC(=O)N3CCN(C)CC3)O[C@H]2CO)c1 | 1.9
CCNC(=O)Nc1ccc2c(c1)C(=O)N(C)[C@H]1CC[C@@H](CC(=O)NCC3CCCCC3)O[C@@H]1CO2 | -1.9
C[C@H](CO)N1C[C@H](C)[C@H](CN(C)Cc2ccc(Oc3ccccc3)cc2)Oc2ccc(N(C)C)cc2CC1=O | 27*
C[C@H](CO)N1C[C@H](C)[C@H](CN(C)S(=O)(=O)c2ccc(F)cc2)OCCCC[C@H](C)Oc2ccc(NC(=O)CCCCCC(=O)Nc3ccccc3N)cc2C1=O | -1.5
CCCCNC(=O)C(NC(=O)c1cccs1)C(=O)c1ccccc1 (centres undefined) | -0.4
COc1ccc(NC(=O)N2C[C@H]3CON(C)[C@H]3C[C@H]2c2ccc(N3CCCCC3)cc2)cc1 | 4.3
COc1ccccc1CN1C[C@H](C)[C@H](OC)CN(C)C(=O)c2ccc(NC(C)=O)cc2OC[C@@H]1C | -0.7
COc1ccc2c3c(n(C)c2c1)[C@H](CO)N(C(=O)Cc1ccccn1)CC31CN(CC2CC2)C1 | 11
C[C@H]1CN([C@@H](C)CO)C(=O)c2cccc(NS(=O)(=O)c3cccs3)c2O[C@H]1CN(C)Cc1ccccc1 | -0.3
C[C@@H]1CN([C@@H](C)CO)C(=O)c2cccc(NC(=O)Nc3ccc(C(F)(F)F)cc3)c2O[C@H]1CN(C)Cc1ccc2c(c1)OCO2 | 0.7
COc1ccc2c3c([nH]c2c1)[C@@H](CO)N(C(=O)CN1CCOCC1)CC31CCN(C)CC1 | -0.9
C[C@H](CO)N1C[C@H](C)[C@@H](CN(C)C(=O)Cc2ccccc2)OCCCC[C@H](C)Oc2ccc(NC(=O)c3ccccc3)cc2C1=O | -0.6
C[C@@H]1CCCCO[C@@H](CN(C)C(=O)Nc2cccc3ccccc23)[C@@H](C)CN([C@H](C)CO)C(=O)c2cc(NC(=O)Nc3cccc4ccccc34)ccc2O1 | -3.6
COCC#Cc1cnc2c(c1)C(=O)N([C@@H](C)CO)C[C@H](C)[C@H](CN(C)C(=O)CCN1CCCCC1)O2 | -6.0
CO[C@@H](CN(C)S(=O)(=O)c1cn(C)cn1)[C@H](C)CN(C(=O)Nc1ccc(F)cc1)[C@@H](C)CO | 0.7
C[C@H]1CN([C@@H](C)CO)C(=O)CCCn2nncc2CO[C@@H]1CN(C)S(=O)(=O)c1ccc(-c2ccccc2)cc1 | 4.9&-0.6
CC1(C(=O)NS(=O)(=O)c2cccc(F)c2)CCN1C(=O)CCc1ccc(Cl)cc1Cl (centres undefined) | -0.4
CC(C)NC(=O)N(C)C[C@@H]1Oc2c(NC(=O)Nc3ccc(C(F)(F)F)cc3)cccc2C(=O)N([C@@H](C)CO)C[C@H]1C | -9.5
N#C[C@H]1[C@@H](c2ccccc2)[C@@H](CO)N1C(=O)Cc1ccccc1 | 1.1
Cc1ccc(Cl)cc1NC(=O)COC(=O)CN1C(=O)C2CCCCC2C1=O (centres undefined) | 0.5
C[C@H]1CN([C@@H](C)CO)C(=O)c2cc(-c3cncnc3)cnc2O[C@@H]1CN(C)C(=O)Cc1cccnc1 | -1.6
COc1ccc2c3c([nH]c2c1)[C@@H](CO)N(C(=O)c1ccc(F)cc1)CC31CN(Cc2cccnc2)C1 | 0.1
C[C@@H]1CN([C@H](C)CO)C(=O)c2cccc(NS(=O)(=O)c3ccccc3)c2O[C@H]1CN(C)Cc1ccccc1 | 0.8
O=C(NCc1ccncc1)[C@@H]1N[C@@H]2c3ccc(/C=C/c4ccccc4)c(=O)n3C[C@@H]2[C@H]1CO | -1.2
COc1ccc(NC(=O)N(C)C[C@@H]2Oc3ccc(NC(=O)Cc4cn(C)c5ccccc45)cc3C(=O)N([C@@H](C)CO)C[C@H]2C)cc1 | 1.7
COc1ccccc1-c1cnc2c(c1)C(=O)N([C@@H](C)CO)C[C@H](C)[C@@H](CN(C)Cc1cccc(F)c1)O2 | 11
O=C([C@H]1[C@H](CO)[C@H]2Cn3c(cccc3=O)[C@@H]1N2Cc1cocn1)N1CCCCC1 | 0.5
COCC(=O)Nc1ccc2c(c1)[C@@H]1C[C@H](CC(=O)NC3CCCC3)O[C@H](CO)[C@@H]1O2 | 0.3
O=C(N[C@H]1CC[C@@H](CCn2cc(-c3ccc(F)cc3)nn2)O[C@H]1CO)c1cnccn1 | -0.4
CCCN(C)C[C@H]1Oc2ncc(C#CC3CCCCC3)cc2C(=O)N([C@H](C)CO)C[C@H]1C | 3.7
CCCNC(=O)C1(C)CCN(Cc2csc3ccccc23)C1 (centres undefined) | -2.9
COc1ccc2c3c(n(C)c2c1)[C@H](CO)N(C(=O)c1ccccc1)CC31CN(Cc2ccccc2OC)C1 | 45*
C[C@@H]1CCCCO[C@@H](CN(C)Cc2ccc(C(F)(F)F)cc2)[C@H](C)CN([C@@H](C)CO)C(=O)c2cc(NC(=O)c3ccncc3)ccc2O1 | 2.4
COc1ccc2c3c(n(C)c2c1)[C@@H](CO)N(C(=O)Nc1ccc(F)cc1)CC31CN(C(=O)Nc2c(C)noc2C)C1 | 1.4
CN1C(=O)c2cc(NC(=O)c3cccc(F)c3)ccc2OC[C@H]2O[C@@H](CC(=O)NC3CCC3)CC[C@@H]21 | -1.3
C[C@H]1CN([C@@H](C)CO)C(=O)c2cccc(NC(=O)Nc3ccc4c(c3)OCO4)c2O[C@H]1CN(C)Cc1ccc(C(=O)Nc2ccccc2N)cc1 | 3.8
C[C@H]1CN([C@@H](C)CO)C(=O)c2cc(C#CCN(C)C)cnc2O[C@@H]1CN(C)Cc1cccc(F)c1 | 11
O=C(C[C@H]1CC[C@H](NS(=O)(=O)c2ccc(F)cc2)[C@@H](CO)O1)N1CCc2ccccc2C1 | -0.9
CC1(C(=O)NS(=O)(=O)c2ccccc2Cl)CCN1C(=O)CCc1ccccc1 (centres undefined) | -0.9
CCS(=O)(=O)Nc1ccc2c(c1)C(=O)N(C)[C@@H]1CC[C@H](CC(=O)NCCOC)O[C@H]1CO2 | 0.2
CO[C@H]1CN(C)C(=O)c2cc(NC(=O)c3ccc(F)cc3)ccc2OC[C@@H](C)N(C(C)=O)C[C@@H]1C | -0.6
COc1cccc(-c2ccc([C@H]3[C@@H](CO)N4CCCCN(S(=O)(=O)c5cccs5)C[C@H]34)cc2)c1 | 1.1
C=CCN(c1ccccc1OC)S(=O)(=O)c1cccc(C(=O)NCC(c2ccc(OC)cc2)N2CCCC2)c1 (centres undefined) | 11
CO[C@H]1CN(C)C(=O)c2ccc(NC(C)=O)cc2OC[C@@H](C)N(C(=O)c2ccncc2)C[C@H]1C | -0.9
COc1ccccc1CNC(=O)C[C@H]1C[C@H]2c3cc(NS(=O)(=O)c4ccc(F)cc4)ccc3O[C@H]2[C@H](CO)O1 | -0.5
COc1ccc(NC(=O)Nc2cccc3c2O[C@@H](CN(C)C(=O)Nc2ccc4c(c2)OCO4)[C@H](C)CN([C@@H](C)CO)C3=O)cc1 | 1.8

6 entries from above, comma-delimited:
Compound,AF4-AF9 inh
CC1(C(=O)NS(=O)(=O)c2ccccc2Cl)CCN1C(=O)CCc1ccccc1 (centres undefined),-0.9
CCS(=O)(=O)Nc1ccc2c(c1)C(=O)N(C)[C@@H]1CC[C@H](CC(=O)NCCOC)O[C@H]1CO2,0.2
CO[C@H]1CN(C)C(=O)c2cc(NC(=O)c3ccc(F)cc3)ccc2OC[C@@H](C)N(C(C)=O)C[C@@H]1C,-0.6
COc1cccc(-c2ccc([C@H]3[C@@H](CO)N4CCCCN(S(=O)(=O)c5cccs5)C[C@H]34)cc2)c1,1.1
C=CCN(c1ccccc1OC)S(=O)(=O)c1cccc(C(=O)NCC(c2ccc(OC)cc2)N2CCCC2)c1 (centres undefined),11
CO[C@H]1CN(C)C(=O)c2ccc(NC(C)=O)cc2OC[C@@H](C)N(C(=O)c2ccncc2)C[C@H]1C,-0.9

Other entries.
SMILES | AF4-AF9 inh
O=C(NCc1ccccc1)[C@@H]1CCCN1C(=O)[C@H]1CCCN1C(=O)c1ccc(Cl)cc1 | -1.8
COc1cccc(CN2C[C@@H](C)[C@H](OC)CN(C)C(=O)c3cc(NS(=O)(=O)c4cn(C)cn4)ccc3OC[C@H]2C)c1 | 1.9
CCC(=O)N1CC2(CCN(Cc3cncnc3)CC2)c2c([nH]c3cc(OC)ccc23)[C@@H]1CO | -0.3
O=C(C[C@@H]1CC[C@H]2[C@@H](COC[C@@H](O)CN2C(=O)c2cccnc2)O1)NCc1ccc(Cl)cc1 | -1.9
CN(C)C(=O)C[C@H]1CC[C@@H]2[C@@H](COc3ccc(NC(=O)NCc4ccccc4)cc3C(=O)N2C)O1 | -2.4
COc1ccc(NC(=O)N(C)C[C@@H]2Oc3ccc(NC(=O)Nc4ccccc4)cc3C(=O)N([C@H](C)CO)C[C@@H]2C)cc1 | 0.3
COc1ccc2c3c(n(C)c2c1)[C@H](CO)NCC31CCN(Cc2cc(-c3ccccc3)on2)CC1 | 39*
Fc1ccc(-c2nc3c(Cl)cc(C(F)(F)F)cn3c2Cc2ccsc2)cc1 | -0.1
C[C@H]1CN([C@@H](C)CO)C(=O)Cc2cc(NC(=O)c3ccncc3)ccc2O[C@@H]1CN(C)C(=O)Nc1ccc(C(F)(F)F)cc1 | -2.6
CCCNC(=O)[C@@H]1[C@@H](CO)[C@@H]2Cn3c(ccc(C4=CCCC4)c3=O)[C@H]1N2 | -2.4
COc1ccc(NC(=O)Nc2ccc3c(c2)C(=O)N([C@H](C)CO)C[C@@H](C)[C@@H](CN(C)S(=O)(=O)c2ccc(OC)cc2)O3)cc1 | 4.2
CO[C@H]1CN(C)C(=O)c2cc(NC(=O)C3CC3)ccc2OC[C@@H](C)N(Cc2nccs2)C[C@@H]1C | -0.7
O=C(Cc1ccccc1)N1CC(=O)N2[C@H](CO)[C@@H](c3ccc(C#CCc4ccccc4)cc3)[C@@H]2C1 | -1.3
C[C@@H]1CN([C@H](C)CO)C(=O)Cc2cc(NC(=O)Nc3cccc4ccccc34)ccc2O[C@H]1CN(C)Cc1ccc(C(=O)O)cc1 | -2.5
CC(C)NC(=O)Nc1cccc2c1O[C@@H](CN(C)C)[C@@H](C)CN([C@@H](C)CO)C2=O | -1.3

2 of the compounds above, tab-delimited.
molecule	AF4-AF9 inh
O=C(Cc1ccccc1)N1CC(=O)N2[C@H](CO)[C@@H](c3ccc(C#CCc4ccccc4)cc3)[C@@H]2C1	-1.3
C[C@@H]1CN([C@H](C)CO)C(=O)Cc2cc(NC(=O)Nc3cccc4ccccc34)ccc2O[C@H]1CN(C)Cc1ccc(C(=O)O)cc1	-2.5

(cont.)
SMILES | AF4-AF9 inh
CO[C@H]1CN(C)C(=O)c2cc(NC(=O)C3CC3)ccc2OC[C@@H](C)N(CC2CCCC2)C[C@H]1C | -0.9
CCCC#Cc1ccc([C@H]2[C@H](CO)N3C(=O)CN(C(=O)c4ccc(F)cc4)C[C@@H]23)cc1 | -0.2
CCOC(=O)C1(C)CCCN(C(=O)c2cccs2)C1 (centres undefined) | 0.8
C[C@@H]1CN([C@H](C)CO)C(=O)Cc2cc(NS(=O)(=O)c3ccc(F)cc3)ccc2O[C@H]1CN(C)C(=O)Nc1ccc(F)cc1 | -1.1
C[C@H]1CN([C@@H](C)CO)C(=O)c2cc(NS(=O)(=O)c3cn(C)cn3)ccc2O[C@@H]1CN(C)C(=O)Nc1cccc2ccccc12 | -0.4
O=C(C[C@H]1CC[C@@H]2[C@H](COC[C@H](O)CN2C(=O)Nc2ccc(Cl)cc2)O1)NCC1CC1 | -4.8
O=C(CN1CCOCC1)NCC[C@@H]1CC[C@H](NC(=O)Nc2ccc(C(F)(F)F)cc2)[C@@H](CO)O1 | 0.1

Printed as active in AF4-AF9 inh, among the entries above:
SMILES | AF4-AF9 inh
C[C@H](CO)N1C[C@H](C)[C@H](CN(C)Cc2ccc(Oc3ccccc3)cc2)Oc2ccc(N(C)C)cc2CC1=O | 27*
COc1ccc2c3c(n(C)c2c1)[C@H](CO)N(C(=O)c1ccccc1)CC31CN(Cc2ccccc2OC)C1 | 45*
COc1ccc2c3c(n(C)c2c1)[C@H](CO)NCC31CCN(Cc2cc(-c3ccccc3)on2)CC1 | 39*

Bioassay records as filed in PubChem BioAssay.

Some of the compounds tested. The share of hits here may be higher or lower than overall.
